# HPGD inh: inhibitors of human 15-hydroxyprostaglandin dehydrogenase (HPGD); P15428; purified HPGD, NADH fluorescence kinetic, PGE2 substrate; Potency, µM, without a hit: top-dose activity change, negative = inhibition, hits mostly inhibitors; 150,000 compounds, 4.3% hits; AID 894; active = well fitted inhibition curve with a large enough effect (not every such curve was filed as active); inconclusive = small, poorly fitted or top-dose-only effect, or another doubt; inactive = no such curve, though single readings can be large or run the other way;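 also: top concentration of the series not given in the record; plate controls included wells without enzyme; inactives centre near -10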
# Target sequence (P15428 whole entry, looked up): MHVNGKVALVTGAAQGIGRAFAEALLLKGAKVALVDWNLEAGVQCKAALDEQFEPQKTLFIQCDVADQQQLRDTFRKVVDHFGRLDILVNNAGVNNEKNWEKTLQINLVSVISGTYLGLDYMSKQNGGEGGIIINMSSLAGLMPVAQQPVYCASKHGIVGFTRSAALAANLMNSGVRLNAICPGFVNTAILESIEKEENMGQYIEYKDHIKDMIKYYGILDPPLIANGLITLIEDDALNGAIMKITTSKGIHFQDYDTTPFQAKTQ
#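 20 nM HPGD preincubated 15 min at room temperature with compound in 50 mM Tris-HCl pH 8, 0.01% Tween 20. Started with 1 mM NAD+ and 30 uM prostaglandin E2; NADH fluorescence (360/450 nm) read 5 times over 30-s intervals, last minus first.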
# Active calls of the source: *; ? = inconclusive; & = joins results of further samples. % is scaled to controls: 0 for no effect and ±100 for the full control effect; potency is read from the fitted curve at half-maximal effect.
molecule | HPGD inh
Fc1ccc(Nc2cccc3nccnc23)cc1 | -9%
Cc1nnc2c(NC(C)C)nc3ccccc3n12 | -3%
COc1ccc(OCc2nc3ccc(S(=O)(=O)Nc4ccccc4Cl)cc3[nH]2)cc1 | -12%
O=C(CSCC(=O)Nc1ccc2ccccc2c1)NCc1ccccc1 | -17%
CCCCCC(=O)Nc1c(-c2ccc(OC)cc2)c(=O)c2ccccc2n1C | ?
CN(C)c1ccc(Nc2nc(-c3cccnc3)cs2)cc1 | -18%
c1cn(CC2(Cn3ccnc3)COC2)cn1 | -14%
Cc1ccc2nc(Nc3ccccc3)c(/C=N/O)c(=O)n2c1 | 11µM*
O=[N+]([O-])c1cc(-c2nc(-c3ccncc3)no2)cc([N+](=O)[O-])c1 | -4%
O=C(O)c1ccc(CSc2nnc(-c3ccco3)o2)cc1 | -19%
Cc1nc2ccc(C(=O)N3CCSCC3)cc2s1 | 1.6µM*
Cc1c(NC(=O)NCc2ccccc2)c(=O)n(-c2ccccc2)n1C | -10%
CC(C)c1ccc2c(c1)c(SC(C)(C)C)c(CC(C)(C)C(=O)O)n2Cc1ccc(Cl)cc1 | ?
Cc1cc(Cl)ccc1OCC(=O)N1CC(C)CC(C)C1 (configuration not stated) | -7%
O=C(NC(=S)NC1CCS(=O)(=O)C1)c1cccs1 (configuration not stated) | -1%
Cc1noc(C)c1S(=O)(=O)N1CCCC(C(=O)N2CCc3ccccc3C2)C1 (configuration not stated) | -16%
C/C(=N\NC(=O)c1ccc(N(C)C)cc1)c1ccc(C)cc1C | -16%
COc1cc(OC)c(-c2c3cc(O)c(=O)cc-3oc3cc(O)c(O)cc23)cc1OC | 16µM*
CN[C@@H]1NC(=O)c2ccccc2N1Cc1ccc(F)cc1 | -4%
[O-]/C(=C(\C(=S)Nc1cccc2ccccc12)[n+]1ccccc1)c1ccc(Cl)s1 | ?
Cc1nc2ccc3nc(NC(=O)c4ccc5c(c4)OCCO5)sc3c2s1 | 19%
CC1CCCCC1NC(=O)/C(C#N)=C/c1ccc2c(c1)OCCO2 (configuration not stated) | -11%
Cc1ccc(Cn2c(N3CCCCCC3)nc3c2c(=O)[nH]c(=O)n3C)cc1 | -15%
COc1ccc2c(c1OC)C(=O)O[C@@H]2[C@H]1c2c(cc3c(c2OC)OCO3)CCN1C | -16%&1%&-13%
Cc1onc(-c2c(F)cccc2Cl)c1C(=O)NCc1cccs1 | -12%
CC(C)(C)n1nnnc1C(c1cccs1)N1CCN(Cc2ccc3c(c2)OCO3)CC1 (configuration not stated) | -14%
Cc1cc(Br)cc(Cl)c1OCC(=O)NC(=O)NCc1ccccc1 | -1%
CC(C)Nc1nc(NC(C)C)nc(NS(=O)(=O)c2ccc(N)cc2)n1 | -10%
O=C(C1CCCO1)N1CCN(C(=S)Nc2ccccc2F)CC1 (configuration not stated) | -5%
COc1c(OC2OC(C(=O)O)C(O)C(O)C2O)cc(O)c2c(=O)cc(-c3ccccc3)oc12 (configuration not stated) | ?
COCCn1c(=O)c(-c2cc(F)cc(F)c2)nc2cnc(OCc3ccccc3)nc21 | -11%
CCOC(=O)Nc1ccc2c(COC(=O)CNS(=O)(=O)c3cccc(Br)c3)cc(=O)oc2c1 | ?
Cc1oc(-c2ccccc2F)nc1CS(=O)CC(=O)NCc1cccs1 (configuration not stated) | -6%
O=C1CC(c2ccccc2)CC(O)=C1C=NCc1ccccc1Cl (configuration not stated) | -4%
CN(C)c1ccnc(SCc2ccccc2Cl)c1C#N | ?
O=C(NC(=S)NCc1ccc2c(c1)OCO2)c1ccccc1 | -20%
CN(Cc1ccco1)c1ncnc2ccc(-c3cccnc3)cc12 | ?
Cc1[nH]c2ccccc2c1C(=O)COC(=O)C1CCC(=O)N1 (configuration not stated) | -3%
Cn1cnnc1Sc1nc2ccccc2nc1NS(=O)(=O)c1ccccc1 | -18%
O=C(N/N=C/c1cn[nH]c1-c1ccc(F)cc1)c1ccncc1 | -14%
O=C(CSc1nnc(-c2ccc(F)cc2)o1)N1CCN(C(=O)c2ccco2)CC1 | -3%
O=C(CCN1C(=O)c2cccc3cccc(c23)C1=O)N1CCN(Cc2ccc3c(c2)OCO3)CC1 | -15%
Nc1ccc(C(=O)OCC(=O)N2CCOCC2)cc1[N+](=O)[O-] | -16%
CCOC(=O)c1ccc(OCC(=O)c2ccc(O)cc2O)cc1 | -16%
Cc1cccc(NC(=S)NCC(c2cccnc2)N(C)C)c1C (configuration not stated) | -11%
Cc1nc2cc3ccccc3cc2n1C | -16%
COC(=O)[C@@H]1C[C@H]1[C@@H](NC(=O)c1cccnc1)c1ccccc1 | -3%
Cc1cc(C(=O)CSc2nnc(Nc3ccccc3F)s2)c(C)n1CC1CCCO1 (configuration not stated) | -12%
COc1cccc([C@@H]2Oc3ccc(Br)cc3C(=O)[C@H]2O)c1 | -3%
CCN(CC)c1ccc(C=Nc2ccccc2C)c(O)c1 | -20%
O=C(CN1C(=O)CCC1=O)Nc1nc(-c2ccc(Cl)s2)cs1 | -14%
CC(OC(=O)CN(C)S(=O)(=O)c1ccc(Cl)cc1)C(=O)Nc1cccc(Cl)c1 (configuration not stated) | -20%
Cc1ccc(N2CCN(CCc3nc4cc(NC(=O)c5ccco5)ccc4n3C)CC2)cc1 | -6%
CC(=O)c1c(C)n(C)c2ccc(OC(=O)c3ccco3)cc12 | -25%
CO[C@]1(NC(=O)C(C(=O)O)c2ccc(O)cc2)C(=O)N2C(C(=O)O)=C(CSc3nnnn3C)COC21 (some centres not stated) | -2%
O=S(=O)(NCC1CCCO1)c1cccc(C(F)(F)F)c1 (configuration not stated) | 3%
COCCNC(=O)COC(=O)/C=C/c1cnc2ccccc2n1 | -10%
N#CCCC12CCCCC1=Nc1ccccc12 (configuration not stated) | -7%
COc1cccc(NC(=O)Nc2cc(C)ccc2F)c1 | -10%
CCN(CC)c1nc2ccccc2nc1C(C#N)C(=O)NCCc1ccccc1 (configuration not stated) | -12%

# Part of the list above, set out differently.
SMILES: Cc1nc2ccc3nc(NC(=O)c4ccc5c(c4)OCCO5)sc3c2s1
  HPGD inh: 19%
SMILES: CC1CCCCC1NC(=O)/C(C#N)=C/c1ccc2c(c1)OCCO2 (configuration not stated)
  HPGD inh: -11%
SMILES: Cc1ccc(Cn2c(N3CCCCCC3)nc3c2c(=O)[nH]c(=O)n3C)cc1
  HPGD inh: -15%
SMILES: COc1ccc2c(c1OC)C(=O)O[C@@H]2[C@H]1c2c(cc3c(c2OC)OCO3)CCN1C
  HPGD inh: -16%&1%&-13%

# More structures follow.
molecule | HPGD inh
O=C(COc1ccc(Br)cc1)N1CCN(S(=O)(=O)/C=C/c2ccccc2)CC1 | -2%
CCOc1ccc(NC(=O)C(CC)NC(=O)c2ccccc2CO)cc1 (configuration not stated) | -1%
Cn1ncc(Br)c1C(=O)Nc1ccc(Cl)cn1 | -15%
CCOc1cc(N2CCOCC2)c(OCC)cc1NC(=O)CSc1cccc[n+]1[O-] | -1%
CCn1c(SCC(=O)Nc2nc3ccc(C)cc3s2)nc2c(c1=O)SC(C)C2 (configuration not stated) | -9%
COc1ccc(-n2nc(C(=O)NCc3ccco3)c3c4ccccc4n(C)c3c2=O)cc1Cl | ?
COc1ccc(OC)c(NC(=O)c2nnn(Cc3ccc(Br)cc3F)c2N)c1 | ?
COc1ccc(Oc2nc(Oc3ccc(OC)cc3)nc(Oc3ccc(OC)cc3)n2)cc1 | -15%
CCOc1ccccc1C(=O)Nc1cccc(-c2nnc(-c3ccccc3)o2)c1 | ?
C/C=C/c1ccc(OCCn2cncn2)c(OC)c1 | -5%
Cc1cc(-c2csc(NC(=O)c3cccc(S(=O)(=O)N(C)C)c3)n2)c(C)n1-c1ccccc1 | -16%
CCc1cccc(CC)c1NC(=S)NCCc1c(C)[nH]c2ccccc12 | -4%
O=C(Nc1cc(C(F)(F)F)ccc1F)C1CCCC1 | -19%
C=CCn1c(=N)n(CC(O)c2ccco2)c2ccccc21 (configuration not stated) | -1%
COC(=O)[C@@]1(Cc2ccc(F)cc2)[C@H]2c3cc(C(=O)N(C)C)n(C)c3C[C@H]2CN1C(=O)c1ccccc1 | -8%
O=C(NC1CCCc2ccccc21)C1CCC(CNS(=O)(=O)c2cccc3nsnc23)CC1 (configuration not stated) | -21%
COC(=O)CCC(=O)c1oc2ccccc2c1NC(=O)CCCN1C(=O)c2ccccc2C1=O | -12%
COc1ccc(/C=C2\CCCC3C2=NN(C(=O)c2scnc2C)C3c2ccc(OC)cc2)cc1 (configuration not stated) | ?
COc1ccc(C(=O)NC2CCN(C(=S)Nc3cccc(C)c3)CC2)cc1 | -9%
CCCCOc1ccccc1NC(=O)CC1SC(=NCC)N(CC)C1=O (configuration not stated) | -8%

# For convenience, part of the list above:
molecule | HPGD inh
COc1ccc(/C=C2\CCCC3C2=NN(C(=O)c2scnc2C)C3c2ccc(OC)cc2)cc1 (configuration not stated) | ?
COc1ccc(C(=O)NC2CCN(C(=S)Nc3cccc(C)c3)CC2)cc1 | -9%
CCCCOc1ccccc1NC(=O)CC1SC(=NCC)N(CC)C1=O (configuration not stated) | -8%

# The listing continues.
molecule | HPGD inh
Cc1ccc(-n2nc3cc(C)c(NC(=S)NC(=O)/C=C/c4ccco4)cc3n2)cc1 | -24%
COc1cccc(C=Nc2ccccc2C(=O)Nc2nccs2)c1OC | ?
O=C(Cn1nnc2c(cnn2-c2ccc(F)cc2)c1=O)OC1CCCCC1 | -10%
CCOC(=O)c1[nH]c2ccccc2c1NC(=O)CN1CCCCC1 | -14%
CN1CCN(NC(=O)c2ccc(F)cc2)CC1 | -13%
Oc1ccccc1C1=Nc2ncnn2C(c2ccc(F)cc2)C1 (configuration not stated) | -11%
CC1SC(c2cccc(Cl)c2)NC1=O (configuration not stated) | ?
CC(=O)N[C@@H](CC(=O)O)C(=O)O | -6%
O=C(OCCCN=C1NS(=O)(=O)c2ccccc21)c1ccccc1F | 3%
CCCc1nnc(NC(=O)c2ccc(N3C(=O)C4C5C=CC(C5)C4C3=O)cc2)s1 (configuration not stated) | -18%
COC(=O)C1(Cc2ccccc2)NC(c2ccccc2C)C2C(=O)N(c3ccc4c(c3)OCO4)C(=O)C21 (configuration not stated) | -4%
Cc1c(C(=O)Nc2cccc(Cl)c2)cn2c(nc3ccccc32)c1C#N | ?
CCc1ccc(NC(=O)N(CCCN2CCOCC2)Cc2cccs2)cc1 | 3%
COc1cc2c(c(OC)c1OC)C(c1ccc(O)cc1)CC(=O)O2 (configuration not stated) | -7%
Cc1cccc2sc(NC(=O)CCNS(=O)(=O)c3cccc4nonc34)nc12 | -3%
COc1ccc(NC(=O)Cn2nnc(-c3ccccc3NC(=O)c3cccs3)n2)cc1 | -28%
CNCc1ccccc1OCC(=O)Nc1ccccc1 | -10%
Cc1ccc2nsnc2c1NC(=O)c1cccnc1Cl | -2%
CC1(C)OC(=O)C(=CNCC(=O)NCC(=O)O)C(=O)O1 | -9%
CC(C)=C(NC(=O)c1ccccc1)C(=O)N/N=C/c1ccc(O)cc1 | -3%

# Two records picked at random from the list so far:
molecule | HPGD inh
CC(=O)N[C@@H](CC(=O)O)C(=O)O | -6%
O=C(OCCCN=C1NS(=O)(=O)c2ccccc21)c1ccccc1F | 3%

# (cont.)
molecule | HPGD inh
CC(=O)c1ccc2c(c1)N(CCCN1CCC(CCO)CC1)c1ccccc1S2 | -5%
CCOC(=O)C(=O)/C(C#N)=C/Nc1ccc(Cl)cc1 | -16%
CCOC(=O)Cc1csc(NC(=S)NC(=O)C(C)(C)C)n1 | -2%
CCN(CC)C(=O)c1cnn(-c2ccccc2)c1NC(=O)c1ccccc1F | 0%
COCCNc1nc(-c2cc3ccccc3o2)cs1 | -15%
COc1cc(NC(=S)Nc2ccccn2)cc(OC)c1 | -12%
NC(=O)[C@@H]1CCCN1 | -6%
Cc1ccc(Nc2nc(N)nc(CSC(=S)N3CCN(c4ccccc4)CC3)n2)cc1 | -3%
CCCCC(=O)NCCc1cc2c(OC)ccc(OC)c2[nH]c1=O | -22%
CC(C)=CCc1c(O)ccc(C(=O)Cc2ccccc2)c1O | ?
CCOc1ccc(S(=O)(=O)N2CCN(c3ccc(C)cc3C)CC2)cc1 | -12%
CCOC(=O)CNC(=O)O[C@H]1C(=O)c2ccc(OC)cc2O[C@@H]1c1ccc2c(c1)OCO2 | -4%
CN(C)c1ccc(N=Nc2ccccc2C(=O)OCC(=O)N2CCCCCC2)cc1 | -16%
O=C(Nc1ccc(Cl)cc1)ON=C1CCCC1 | -13%
Cc1cc(C)cc(N2C(=O)CN(Cc3sccc3C)C2=S)c1 | 28µM*
COc1ccc(C(=O)OC/C(O)=C(\C#N)c2nc3ccccc3[nH]2)cc1S(=O)(=O)N1CCOCC1 | -6%
COC(=O)C1=C(CSc2nccn2C)NC(=O)NC1c1cc(C)ccc1C (configuration not stated) | -9%
CSc1nccn1CC(=O)Nc1ccc(F)cc1 | -3%
CCOC(=O)c1cc(-c2ccccc2)sc1NC(=O)C(C)Sc1nnc(N)s1 (configuration not stated) | -17%
O=C(CCc1ccc(S(=O)(=O)NCCc2ccccc2)cc1)Nc1ccc2c(c1)OCO2 | -1%
COc1ccc(OC)c(S(=O)(=O)N2CCC(C(=O)Nc3cccc(C)c3C)CC2)c1 | 0%
S=C(NCC1CCCO1)Nc1ccc(Cl)cc1Cl (configuration not stated) | 28µM*

# Taken from above:
# For HPGD inh, `O=C(Nc1ccc(Cl)cc1)ON=C1CCCC1` reads -13%
# For HPGD inh, `CCOC(=O)c1cc(-c2ccccc2)sc1NC(=O)C(C)Sc1nnc(N)s1` (configuration not stated) reads -17%

# Screens: PubChem BioAssay, National Center for Advancing Translational Sciences (NCATS)

# Only part of the results is shown; rates above refer to the full screens.
